Bioassay records deposited in PubChem BioAssay by National Center for Advancing Translational Sciences (NCATS).
Rango complex inh: qHTS Assay for Inhibitors of Rango (Ran-regulated importin-beta cargo) - Importin beta complex formation. Importin subunit beta-1 (Homo sapiens), Q14974. Rango CFP/YFP FRET sensor + importin beta, 45 min. Potency, µM (doses to about 92.2 µM), for the others: at the highest dose inhibition of complex formation. 340,000 compounds, 0.031% hits. AID 540263, 2011; active = rising FRET ratio curve, often small or poorly fitted; inconclusive = mostly compound fluorescence or quenching in the first reads; inactive = flat curves in all reads;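 also: potency is read from the fitted curve at half-maximal effect; 0% = DMSO wells and 100% = buffer wells lacking importin beta; nearly all actives have a fitted effect of over 15% in size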
Target sequence (Q14974 whole entry, looked up): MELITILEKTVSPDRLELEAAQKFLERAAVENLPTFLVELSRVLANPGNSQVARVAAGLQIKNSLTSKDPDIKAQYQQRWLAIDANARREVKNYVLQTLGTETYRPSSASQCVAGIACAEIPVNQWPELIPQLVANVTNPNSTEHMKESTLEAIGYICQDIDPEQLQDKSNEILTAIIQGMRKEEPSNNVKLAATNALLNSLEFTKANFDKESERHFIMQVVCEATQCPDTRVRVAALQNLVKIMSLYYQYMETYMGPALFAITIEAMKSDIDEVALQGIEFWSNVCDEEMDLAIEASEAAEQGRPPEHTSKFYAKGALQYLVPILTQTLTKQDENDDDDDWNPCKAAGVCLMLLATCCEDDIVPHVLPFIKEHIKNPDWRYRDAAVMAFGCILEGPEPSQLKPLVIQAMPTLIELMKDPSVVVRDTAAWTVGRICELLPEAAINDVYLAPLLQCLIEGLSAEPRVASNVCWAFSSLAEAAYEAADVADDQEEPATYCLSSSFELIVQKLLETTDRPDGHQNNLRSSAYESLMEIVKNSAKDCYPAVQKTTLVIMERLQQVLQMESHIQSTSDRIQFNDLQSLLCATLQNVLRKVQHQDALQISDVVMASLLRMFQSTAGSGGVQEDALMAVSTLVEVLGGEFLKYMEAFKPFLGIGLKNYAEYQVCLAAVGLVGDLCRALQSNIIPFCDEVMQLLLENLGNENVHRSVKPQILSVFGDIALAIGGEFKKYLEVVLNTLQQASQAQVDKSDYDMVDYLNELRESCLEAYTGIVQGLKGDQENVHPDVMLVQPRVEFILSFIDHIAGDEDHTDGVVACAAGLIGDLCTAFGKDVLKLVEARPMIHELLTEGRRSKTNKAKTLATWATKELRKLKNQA
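Inhibition scored from the CFP 486 nm/YFP 530 nm FRET ratio 45 min after adding 0.125 microM importin beta to 50 nM Rango biosensor preincubated 5 min with compound (room temperature, PBS with DTT, Tween-20, BSA). No-importin wells as positive control.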
miR-21 FLuc: qHTS Assay for Modulators of miRNAs and/orActivators of miR-21; HeLa miR-21 FLuc reporter, luciferase, 48 h; Potency, µM (doses to about 38.3 µM), for the others: at the top dose reporter change, positive = more light; 340,000 tested, under 10 active; active = well fitted rising curve with a large enough effect; inconclusive = small, poorly fitted or top-dose-only effect; inactive = no such curve, though single readings can be large or run the other way;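 also: % of control where 0% means no effect; miR-21 action dims this reporter so a rising signal means less miR-21 action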
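Compounds were titrated across several concentrations (up to approximately 40 uM) and incubated 48 hours with HeLa miR-21-FLuc reporter cells (miR-21 target sequence downstream of FLuc, endogenous miR-21). Readout was firefly luciferase luminescence after lytic detection reagent.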
GLA inh pH 4.5: qHTS Assay for Inhibitors of Human alpha-Galactosidase at pH 4.5; purified enzyme, 4-MU-alpha-Gal fluorescence, pH 4.5; activity change, negative = inhibition, % at 105 µM; 230,000 tested, under 10 active; AID 1467, 2008; inconclusive = small, poorly fitted or top-dose-only inhibition, or a rising curve; inactive = flat fitted curve, though single readings scatter; no compound was filed as active;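 also: 0% = full activity with enzyme and -100% = basal without enzyme; dose as in the result columns while the protocol names 77 µM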
Rango release inh: qHTS Assay for Inhibitors of RanGTP induced Rango (Ran-regulated importin-beta cargo) - Importin beta complex dissociation. Snurportin-1 (Homo sapiens) + GTP-binding nuclear protein Ran (Homo sapiens) + Importin …. Biochemical FRET Rango-importin beta, RanGTP-induced dissociation. Potency, µM (titrated, usually from 46.1 µM), without a hit: at the top dose activity change, negative = inhibition. 340,000 compounds, 0.071% hits; active means falling FRET ratio curve, often poorly fitted, with flat reads before Ran was added; inconclusive means other falling curves, or compound fluorescence or quenching; inactive means flat or rising ratio curve;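 also: potency is read from the fitted curve at half-maximal effect; % of control where 0% means no effect; nearly all actives have a fitted effect of over 45% in size; -100% = wells without RanGTP and RCC1; the record marks most hits as doubtful in a second field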
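Compounds sat 5 min at room temperature with 0.1 uM Rango biosensor plus 0.25 uM importin beta, then FRET pre-read. RanGTP-RCC1 (0.6 uM Ran, 2mM GTP, 0.2 uM RCC1) added for 45 min, and the CFP/YFP post-read measured blocked complex dissociation.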
Active calls of the source: *; ? = inconclusive; · = no result given.

Rango complex inh	miR-21 FLuc	GLA inh pH 4.5	Rango release inh	SMILES
-0.6%	-8%	·	8%	COC(CNC(=O)c1ccc2c(c1)nc(C)n2-c1cccc(C)c1)OC
-2.4%	-5%	-11	8%	O=[N+]([O-])c1ccc(Nc2nc(NC3CCCCC3)nc(N3CCCC3)n2)cc1
-0.7%	-3%	3	-15%	Cc1c(NC(=O)CN2CCN(C(=O)c3ccco3)CC2)c(=O)n(-c2ccccc2)n1C
-0.3%	-6%	3	1%	COC(=O)c1ccc(OC(=O)c2cccnc2)cc1
-3.4%	5%	·	-7%	Cc1ccccc1C(=O)NC(CC(C)C)C(=O)N1CCN(c2ccccc2)CC1 (stereo not drawn)
1.5%	3%	·	0%	COc1ccc(N2C(=NC(=O)CCC3CCCC3)SC3CS(=O)(=O)CC32)cc1 (stereo not drawn)
-1.8%	-2%	·	-8%	CS(=O)(=O)CCC(C(=O)O)N1C(=O)c2ccc(Oc3ccc(Cl)cc3)cc2C1=O (stereo not drawn)
-0.9%	-53%	-1	7%	O=c1c(=NNc2ccccc2Cl)c(=O)c2ccccc12
-4.1%	-4%	5	-12%	Cc1nnc(Nc2ccc(C(=O)NCCO)cc2)c2ccccc12
?	·	·	-30%	COc1ccccc1CN1C(=O)[C@H]2Cc3c([nH]c4ccccc34)C(C)(C)N2C1=O
-0.4%	-53%	-9	-1%	COc1cccc(C(=O)OCC(=O)c2c[nH]c3ccccc23)c1O
-3.5%	-7%	3	20%	Cc1cc([N+](=O)[O-])nn1CCCC(=O)N1CCN(c2ccc(F)cc2)CC1
0.6%	-5%	0	10%	Cc1ccccc1OCCNCC(C)O (stereo not drawn)
-0.5%	0%	-7	1%	CCOC(=O)C1CCN(CC(=O)Nc2cc(S(=O)(=O)N3CCOCC3)ccc2C)CC1
2.9%	-65%	-5	2%	CCCOc1ccc(-c2nnc(N)s2)cc1
3.5%	·	·	-7%	COc1cccc2c1C(=N)c1c(O)c3c(c(O)c1C2=O)CC(O)(C(C)=O)CC3OC1CC(N)C(O)C(C)O1 (stereo not drawn)
-1.2%	-1%	6	-2%	CCOc1c(C(N)=O)c(-c2ccccc2)c2c(=O)[nH]c3ccccc3n12
-0.4%	-3%	11	4%	CN(C)c1cc[nH]c(=O)c1C#N
?	-21%	·	?	Cc1c(C(=O)O)cccc1-c1ccc(/C=C2\SC(=O)NC2=O)o1
1.6%	-3%	·	1%	CN(c1ccc(C(=O)NC2CCCC2)cc1)S(=O)(=O)c1ccc(Cl)cc1
2.0%	-5%	-5	-4%	COC(=O)Cn1c2c(c3cc(C)ccc31)CCCC2
0.5%	-3%	-2	22%	O=C(O)C1C2C=CC(O2)C1C(=O)Nc1ccc(S(=O)(=O)N2CCc3ccccc32)cc1 (stereo not drawn)
0.7%	3%	-10	-16%	CC(C)OC(=O)c1cn(-c2ccccc2)nc1-c1ccco1
0.3%	-10%	1	2%	O=C(O)c1ccc(CSc2ncn[nH]2)cc1
-0.3%	0%	-1	-10%	C/C(C/C(C)=C1/SC(=S)NC1=O)=C1\SC(=S)NC1=O

More structures follow:
Rango complex inh	miR-21 FLuc	GLA inh pH 4.5	Rango release inh	SMILES
-4.4%	-4%	-8	15%	COC(=O)NC1CSCC1OC(=O)CN1C(=O)c2ccccc2C1=O (stereo not drawn)
-0.4%	-9%	-10	-11%	O=C(Cn1cnc2c(nnn2Cc2ccc(Cl)cc2)c1=O)OCc1ccccc1
0.4%	0%	·	-13%	O=C(CCc1nnc2ccc(N3CCC4(CC3)OCCO4)nn12)Nc1ccc(F)cc1
-1.6%	0%	4	-15%	CC1(C)C2(C#N)C(N)=NC3(OCCO3)C12C#N (stereo not drawn)
3.1%	-54%	-5	23%	O=C(N/N=C/c1ccccn1)NC12CC3CC(CC(C3)C1)C2
1.7%	-8%	-4	-24%	CCS(=O)(=O)c1ccc(O)c(NC(=O)Nc2ccccc2)c1
-1.5%	-20%	-6	-2%	COc1ccc(N(CC(=O)Nc2ccc3c(c2)OCO3)S(C)(=O)=O)c(OC)c1
2.0%	-15%	3	6%	OCC1(CCOc2ccccc2)CCN(Cc2ccc3cccc(F)c3n2)CC1
-2.9%	-1%	·	-11%	COc1ccc(C)cc1NC(=O)CSc1nc2ccccc2nc1N1CCCC1
4.2%	-4%	-5	4%	CN1CCN(C2CC(=O)N(c3ccc4c(c3)OCCO4)C2=O)CC1 (stereo not drawn)
2.2%	1%	5	0%	CN1C(=O)CC(N2CCN(C(=O)c3ccccc3)CC2)C1=O (stereo not drawn)
-4.9%	-16%	0	-18%	O=c1c2ccccc2nc(-c2ccccc2)n1Cc1ccc(Cl)cc1
·	4%	-3	·	COc1ccc(OC)c(CNC(=O)c2cc(=O)[nH]c3ccc(S(=O)(=O)N4CCCC4)cc23)c1
?	·	·	-12%	COc1ccc(-c2csc(C(C#N)=C(O)CSc3nccn3C)n2)cc1OC
-1.9%	0%	8	-23%	CCC(C)(NC(=O)c1ccccn1)C(=O)NC1CCCCC1 (stereo not drawn)
2.6%	-1%	2	1%	CC(CN1CCN(C)CC1)OC(=O)c1cccc(Cl)c1 (stereo not drawn)
-3.7%	-4%	·	1%	CSCCC(NC(=O)C1CCC(C)CC1)C(=O)Nc1ccc(NC(C)=O)cc1 (stereo not drawn)
0.4%	8%	-8	-6%	CN1c2ccccc2C(C)(C)C12C=Nc1c(ccc3ccccc13)O2 (stereo not drawn)
0.1%	-1%	0	0%	O=C(c1ccccn1)N1CCN(S(=O)(=O)c2ccc(F)cc2)CC1
?	2%	-3	-29%	COc1cc(C2C(C#N)=C(N)Oc3c2ccc2ccccc32)ccc1OCC(=O)Nc1ccc(C)cc1 (stereo not drawn)
-0.1%	-3%	-2	3%	CCn1c(SCC(=O)NC(C)(C)C)nnc1-c1ccccn1
0.1%	·	·	8%	Cc1nc(C2CCCCC2)c(-c2ccccc2)c(N2CCOC2=O)c1C
-0.1%	2%	·	-2%	COc1ccc(C(OCC(O)CN2CCC(O)CC2)c2ccc(OC)cc2)cc1 (stereo not drawn)
-1.6%	-13%	·	-6%	C/C(=N\NC(=O)c1ccc(Br)o1)c1cc2c(cc1NC(=O)CCC(=O)O)OCO2
-0.8%	3%	·	-10%	COc1ccc(C(=O)NC(C)C2CC3CCC2C3)c(OC)c1 (stereo not drawn)

Next section.
Rango complex inh	miR-21 FLuc	GLA inh pH 4.5	Rango release inh	SMILES
-4.6%	·	·	4%	CCOC(=O)c1ccc(S(=O)(=O)N2CCC(C(=O)NCc3ccccc3OC)CC2)cc1
-0.2%	-5%	-5	-2%	Cc1c(NC(=O)COC(=O)c2c3c(nc4ccccc24)CCCC3)c(=O)n(-c2ccccc2)n1C
0.2%	·	·	-17%	O=C(C1CC1)N1CCc2cc(Br)c(S(=O)(=O)N3CCCCCC3)cc21
3.1%	3%	-6	15%	CC(=O)N1CCC(=O)Nc2ccc([N+](=O)[O-])cc21
-3.6%	0%	0	0%	Cc1ccc(C(C)C)c(OC(=O)/C=C/c2ccccc2)c1
-1.1%	-8%	-8	17%	Cc1cc(C)n(-c2ccc(OCC(=O)O)nn2)n1
3.2%	·	·	-2%	O=S(=O)(NC1CC1)c1ccc(Br)cc1N1CCC[C@H]1CO
1.4%	-2%	0	-8%	Fc1ccc(CN2CCCCCCC2)c(F)c1
1.0%	1%	3	-17%	O=c1[nH]c2ccc(Cl)cc2c(-c2ccccc2)c1CN1CCOCC1
7.2%	0%	4	9%	COC(=O)c1sccc1NC(=O)c1cc(C)on1
-1.1%	·	·	-7%	O=C1CC(NS(=O)(=O)c2ccc(F)cc2)CN1c1ccc2c(c1)OCCO2 (stereo not drawn)
-0.4%	4%	-4	-7%	CN(C)c1cc(Nc2ccc(O)cc2)c([N+](=O)[O-])c2nonc12
-0.3%	-30%	-6	4%	COc1ccc(OCCOC(=O)c2cccs2)cc1
3.4%	-55%	-4	-25%	C=CCS/C(N)=N\N=C\c1c(O)ccc2ccccc12
-2.2%	0%	·	10%	CCCCCN(C(=O)CCC(=O)OCc1ccc(C(C)(C)C)cc1)c1c(N)n(CCCC)c(=O)[nH]c1=O
-2.2%	10%	2	-2%	CN(C)c1ccc(P(=O)(OCc2ccccc2)C(O)c2ccccc2F)cc1 (stereo not drawn)
?	·	·	-20%	CCOC(=O)c1c(NC(=O)C(C)OC(=O)c2ccc(NC(=O)CC#N)cc2)sc2c1CCCC2 (stereo not drawn)
-1.2%	0%	-2	2%	O=C(CN1CCC(NC(=O)c2cccc(F)c2)CC1)NCc1cccs1
·	-12%	5	·	COC(=O)c1cc(C(=O)Cc2ccccc2)c[nH]1
-6.1%	·	·	-16%	Nc1ncnc2c1ncn2[C@@H]1O[C@H](CN=C2NS(=O)(=O)c3ccccc32)[C@@H](O)[C@H]1O
3.9%	0%	·	-10%	CC(Oc1ccc(F)cc1)C(=O)N1CCN(c2ncccn2)CC1 (stereo not drawn)
-1.5%	·	·	1%	O=C(CN1C(=O)c2ccccc2C1=O)NC(Cc1ccccc1)C(=O)O (stereo not drawn)
?	·	·	0%	C/C(=N\OCC(=O)OCC(=O)N(Cc1ccccc1)C(C)(C)C)c1ccc2c(c1)OCO2
0.1%	0%	·	0%	CCOC(=O)c1ccccc1NC(=O)COC(=O)CC1CCCCC1
-1.8%	-11%	5	-5%	COc1ccc(CNc2nc(-c3cccnc3)nn2S(C)(=O)=O)cc1

An excerpt of these results, in CSV form.
molecule,Rango complex inh,miR-21 FLuc,GLA inh pH 4.5,Rango release inh
COC(=O)c1sccc1NC(=O)c1cc(C)on1,7.2%,0%,4,9%
O=C1CC(NS(=O)(=O)c2ccc(F)cc2)CN1c1ccc2c(c1)OCCO2 (stereo not drawn),-1.1%,·,·,-7%
CN(C)c1cc(Nc2ccc(O)cc2)c([N+](=O)[O-])c2nonc12,-0.4%,4%,-4,-7%
COc1ccc(OCCOC(=O)c2cccs2)cc1,-0.3%,-30%,-6,4%

Sorted by value in Rango complex inh (descending): 3 from the list above
| SMILES | Rango complex inh |
| --- | --- |
| CC(=O)N1CCC(=O)Nc2ccc([N+](=O)[O-])cc21 | 3.1% |
| O=C(C1CC1)N1CCc2cc(Br)c(S(=O)(=O)N3CCCCCC3)cc21 | 0.2% |
| COc1ccc(OCCOC(=O)c2cccs2)cc1 | -0.3% |

(listing goes on)
Rango complex inh	miR-21 FLuc	GLA inh pH 4.5	Rango release inh	SMILES
-0.4%	-39%	-6	6%	CC(C)c1cc(C(=O)Nc2cc(Br)ccc2O)no1
·	-13%	8	·	COc1ccc(-c2nc(CC(=O)O)cs2)cc1OC
0.2%	-1%	1	10%	COC(=O)c1c(N)c2ccccc2[nH]c1=O
-5.5%	·	·	23%	Nc1c(N(CCCO)C(=O)C2CCCCC2)c(=O)[nH]c(=O)n1Cc1ccccc1
2.9%	4%	·	18%	O=C1CC(NC2CCN(C(=O)c3cccc(F)c3)CC2)C(=O)N1 (stereo not drawn)
2.3%	-7%	-4	1%	CCOC(=O)NC(Nc1ccc(S(N)(=O)=O)cc1)(C(=O)OCC)C(F)(F)F (stereo not drawn)
-1.3%	3%	·	1%	Nc1[nH]ncc1S(=O)(=O)c1ccccc1
-0.1%	·	·	8%	O=C(c1ccc(S(=O)(=O)Nc2ccccc2)cc1)N1CCC1
-3.1%	-7%	-13	17%	Clc1ccc(C(c2nnnn2C2CCCCC2)N(Cc2cccnc2)Cc2ccco2)cc1 (stereo not drawn)
3.5%	-31%	1	-9%	Clc1ccc2nc(-c3ccccc3)c(CN3CCOCC3)n2c1
1.4%	-3%	7	-10%	O=C(COc1ccc(Cl)cc1Cl)N/N=C/c1ccc(OC2OC(CO)C(O)C(O)C2O)cc1 (stereo not drawn)
-1.0%	-19%	-3	12%	CCN(CC)C(=S)SCC(=O)Nc1nc(=O)c2ccccc2s1
-1.9%	-5%	·	-19%	O=C(CSc1ccccc1C(=O)N1CCCCC1)NCC1CCCCC1

Only part of the results is shown. The share of hits here may be higher or lower than overall.
